Rango release inh – inhibitors of RanGTP-induced Rango-importin beta complex dissociation; hit rate 0.071% among 340,000; Potency, µM (titrated, usually from 46.1 µM), without a hit: at the highest dose activity change, negative = inhibition; Biochemical FRET Rango-importin beta, RanGTP-induced dissociation; AID 540253; active means falling FRET ratio curve, often poorly fitted, with flat reads before Ran was added; inconclusive means other falling curves, or compound fluorescence or quenching; inactive means flat or rising ratio curve;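 further: potency means the concentration at half of the fitted maximal effect; % of control where 0% means no effect; nearly all actives have a fitted effect of over 45% in size; -100% = wells without RanGTP and RCC1; the record marks most hits as doubtful in a second field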
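Rango FRET biosensor (snurportin-1 IBB flanked by N-terminal EYFP and C-terminal CFP10) at 0.1 uM, with 0.25 uM importin beta in PBS, 1mM DTT, 0.02% Tween-20, 0.1% BSA. 0.6 uM Ran, 2mM GTP and 0.2 uM RCC1 were then added for 45 min at room temperature. Inhibition read as loss of FRET rise.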
Rango-impB inh – Rango-importin beta binding inhibition | Q14974 | Rango CFP/YFP FRET sensor + importin beta, 45 min | Potency, µM (doses to about 92.2 µM), without a hit: top-dose inhibition of complex formation | hit rate 0.031% among 340,000 | AID 540263; active = rising FRET ratio curve, often small or poorly fitted; inconclusive = mostly compound fluorescence or quenching in the first reads; inactive = flat curves in all reads;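 further: potency means the concentration at half of the fitted maximal effect; 0% = DMSO wells and 100% = buffer wells lacking importin beta; nearly all actives have a fitted effect of over 15% in size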
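Inhibition scored from the CFP 486 nm/YFP 530 nm FRET ratio 45 min after adding 0.125 microM importin beta to 50 nM Rango biosensor preincubated 5 min with compound (room temperature, PBS with DTT, Tween-20, BSA). No-importin wells as positive control.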
miR-21 reporter – raises the signal of a miR-21 reporter. HeLa miR-21 FLuc reporter, luciferase, 48 h. Potency, µM (titrated, usually from 38.3 µM), for the others: at the highest dose reporter change, positive = more light. 340,000 tested, under 10 active; active = well fitted rising curve with a large enough effect; inconclusive = small, poorly fitted or top-dose-only effect; inactive = no such curve, though single readings can be large or run the other way;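 further: % of control where 0% means no effect; miR-21 action dims this reporter so a rising signal means less miR-21 action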
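HeLa cells endogenously expressing miR-21, stably carrying CMV-driven firefly luciferase with a downstream miR-21 binding site, 2000 cells/well. Titrations up to approximately 40 uM, 48 hours; luciferase luminescence read.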
GLA inh pH 4.5 – inhibitors of human alpha-galactosidase A at pH 4.5 | P06280 | purified enzyme, 4-MU-alpha-Gal fluorescence, pH 4.5 | activity change, negative = inhibition, % at 105 µM | 230,000 tested, under 10 active; inconclusive = small, poorly fitted or top-dose-only inhibition, or a rising curve; inactive = flat fitted curve, though single readings scatter; no compound was filed as active;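 further: 0% = full activity with enzyme and -100% = basal without enzyme; dose as in the result columns while the protocol names 77 µM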
Target sequence (P06280 whole entry, looked up): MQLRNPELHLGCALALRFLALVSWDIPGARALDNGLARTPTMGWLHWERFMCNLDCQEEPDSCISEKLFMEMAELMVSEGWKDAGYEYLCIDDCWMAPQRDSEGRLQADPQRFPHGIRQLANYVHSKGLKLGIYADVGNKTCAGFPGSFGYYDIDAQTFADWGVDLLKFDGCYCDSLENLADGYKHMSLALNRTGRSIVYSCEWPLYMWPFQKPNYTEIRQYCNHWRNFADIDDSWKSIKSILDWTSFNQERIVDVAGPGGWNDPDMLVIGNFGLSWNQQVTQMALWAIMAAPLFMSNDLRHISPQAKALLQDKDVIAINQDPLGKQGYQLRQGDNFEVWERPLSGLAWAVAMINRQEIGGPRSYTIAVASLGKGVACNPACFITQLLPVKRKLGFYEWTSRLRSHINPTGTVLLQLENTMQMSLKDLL
The depositor's hits bear a star; ? = inconclusive; . = not tested or not shown; & = joins results of further samples.

SMILES	Rango release inh	Rango-impB inh	miR-21 reporter	GLA inh pH 4.5
Cn1c(N)c(C(=O)CSc2nn(-c3ccc(F)cc3)c(=S)s2)c(=O)n(C)c1=O	-20%	-0.4%	.	.
CCSc1nc2ccccc2n1C(=O)/C=C/c1ccc(OC)c(OC)c1	-3%	-4.3%	-3%	2
O=C(CC(=O)NCc1ccc(Cl)cc1)NCc1ccccc1	-4%	-2.3%	2%	.
O=C(O)c1cc(O)c2c(c1)C(=O)c1cccc(O)c1C2=O	1%	-0.8%	25%	1&-1
CCOC(=O)N1CCC(NC(=O)CS(=O)(=O)Cc2nc(-c3ccc(C)cc3)oc2C)CC1	-18%	-1.6%	1%	-3
COc1cccc(C2/C(=C(\O)c3ccc(OC)c(OC)c3)C(=O)C(=O)N2c2cc(C)on2)c1 (centres undefined)	-5%	-0.6%	-6%	2
Cc1ccnc2nc(C(=O)NCc3cccs3)nn12	0%	-0.5%	-4%	16
CSc1nsc(SCC(=O)Nc2ccc3c(c2)OCCO3)n1	3%	-3.7%	-46%	2
Cc1nc(C)n(CC(=O)N2CCCC(C(=O)c3ccc(C(F)(F)F)cc3)C2)n1 (centres undefined)	10%	2.3%	-1%	-2
C=CCNc1nc(NCCO)nc(N2CCCC2)n1	-11%	?	-2%	0
Cc1ccc(N=CC=C2OC(C)(C)C(C)(C)O2)c(C)c1	?	?	-4%	-3
COc1ccc(Cl)cc1N(CC(=O)NCC(C)C)S(=O)(=O)c1ccc(C)c([N+](=O)[O-])c1	11%	3.9%	-9%	0
C/C(=N/NC(=O)CN1CCN(S(=O)(=O)c2ccc(Br)cc2)CC1)c1ccncc1	1%	-6.0%	-8%	-3
Cc1ccc(C)c(OCC(=O)NCC2COc3ccccc3O2)c1 (centres undefined)	11%	3.2%	.	.
O=C(O)CCCN1C(=O)C2C3CC(C2C1=O)C1C(c2ccccc2)c2sc(=O)[nH]c2SC31 (centres undefined)	-2%	?	-2%	-28
Cc1cc(C)cc(NC(=O)Cn2cc3c(n2)CCCCC3)c1	.	.	-5%	-9
CCC(=O)NCCN1CCN(C(=O)CC)CC1	6%	-0.3%	-4%	-9
C/C(=N\NC(N)=O)c1ccccc1	30%	2.2%	0%	2
Cc1ccc2c(c1)c1nnc(SCC(=O)Nc3ccccc3C(F)(F)F)nc1n2CC(=O)O	-1%	-2.5%	-2%	-2
N#Cc1c(N2CCOCC2)nc(N2CCCCC2)c2c1CCN(C1CCCCC1)C2	23µM*	?	0%	4
Cc1ccc(/C=C(\NC(=O)c2ccccc2)C(=O)OCc2ccccc2)cc1	-2%	0.2%	-8%	-6
O=C(Cc1ccccc1)Nc1nccs1	-6%	-2.5%	-4%	.
O=C(Cn1cc([N+](=O)[O-])ccc1=O)NC1CCCCC1	-13%	5.0%	.	.
Cn1c2c(c(=O)n(C)c1=O)C(c1cccc([N+](=O)[O-])c1)Nc1ccccc1O2 (centres undefined)	3%	-0.1%	-13%	-4
COC(=O)c1[nH]c2ccc(F)cc2c1NS(=O)(=O)c1ccc(OC)cc1	4%	6.6%	4%	-5
CCc1ccc(C2C(C#N)=C(N)SC(N)=C2C#N)cc1	?	?	-1%	-11
COC1CCCN(C(=O)c2ccc(OC3CCN(CCc4ccccc4)CC3)cc2)C1 (centres undefined)	-23%	-3.1%	2%	4
CCCn1cc(CN2CCC(n3nccc3NC(=O)CCOc3ccccc3)CC2)c(C)n1	0%	-0.6%	2%	.
O=C(O)CCNC(=S)Nc1cccc(F)c1	5%	1.0%	-3%	-15
CC(C)(C)CN1CCC(n2nccc2NC(=O)c2ccccc2Cl)CC1	-10%	2.3%	-3%	.
COCCNC(C(=O)Nc1cc(Cl)cc(Cl)c1)c1ccccc1 (centres undefined)	11%	-2.0%	-3%	-1
COc1ccc(OCCSc2nnc(CC(=O)Nc3cccc(Cl)c3Cl)n2C)cc1	-10%	-4.3%	-23%	-2
COc1ccc(CCNC(=O)C(NC(=O)OCc2ccccc2)C(C)C)cc1OC (centres undefined)	-8%	5.4%	0%	9
O=C(Cc1cccs1)NCc1cccc(C(F)(F)F)c1	8%	-3.7%	-56%	.
CC1(c2ccccc2)NC(=O)N(CC(=O)Nc2cc3c(cc2Br)OCCO3)C1=O (centres undefined)	11%	0.1%	.	.
COC(=O)c1ccc(COC(=O)CNC(=O)c2ccc(-c3ccccc3)cc2)cc1	1%	-0.9%	-45%	-2
CC(C)(C)NC(=O)C(c1ccc(-c2ccccc2)cc1)N(C[C@H]1CC[C@@H]([C@@H]2CC[C@H](CO)O2)O1)C(=O)c1cccc(Cl)c1 (some centres undefined)	-1%	6.6%	.	.
CC1CCc2nc3ccc(S(=O)(=O)N4CCC(C(=O)NCc5ccccc5Cl)CC4)cc3c(C(=O)O)c2C1 (centres undefined)	-17%	?	0%&0%	.
Cc1ccc(CONC(=O)c2cccc(C)c2)cc1	14%	1.9%	.	.
COc1ccc(S(=O)(=O)N2CCSC2C)cc1C (centres undefined)	-5%	-1.4%	-3%	.
O=C(O)C1CC=CCC1C(=O)NCc1ccccc1 (centres undefined)	-5%	3.7%	-1%	-5
CCN(CC)CCOC(=O)c1ccc(N/C=C(/C#N)c2nc(-c3ccc(OC)c(OC)c3)cs2)cc1	?	?	-10%	0
O=c1[nH]c(=S)n(-c2cccc(C(F)(F)F)c2)c(O)c1C=NCCN1CCNCC1	-13%	-0.9%	1%	.
CS(=O)(=O)N(CC(=O)NCc1ccccc1Cl)C1CCCCC1	-12%	-4.2%	1%	8
COc1cc(COCC(O)CN2CCN(Cc3ccccc3)CC2)cc(OC)c1OC (centres undefined)	-5%	1.9%	-4%	-2
Cc1c(OCC(=O)N[C@@H](Cc2ccccc2)C(=O)O)ccc2c1oc(=O)c1ccccc12	-13%	0.1%	-1%	.
O=C(O)CCSCC(=O)c1ccc2c(c1)OCCO2	0%	0.0%	28%	-6
COc1c(CC=C(C)C)cc(C2CC(=O)c3c(O)cc(O)cc3O2)c(CC=C(C)C)c1O (centres undefined)	10%	-0.5%	.	.
Cc1ccc(NC(=O)CSc2nnc(Cc3cccn3C)n2-c2ccc(F)cc2)c(C)c1	-5%	-0.2%	2%	4
Oc1ccccc1-c1ccn[nH]1	-18%	-1.2%	.	.
CCc1ccc(NC(=O)CSc2nnc(-c3ccccn3)n2C)cc1	9%	-0.3%	-7%	2
Cc1sc2ncnc(Sc3nnc4sc5ccccc5n34)c2c1C	.	.	0%	-4
COc1cccc(/C=C2\Sc3ccc(C(=O)NCc4cccnc4)cc3N(C)C2=O)c1	0%	0.0%	9%	1
O=C(c1cccc(C(F)(F)F)c1)N1CCN(C2CCCCC2)CC1	-9%	-2.4%	2%	-4
Cc1nnc(NC(=O)CSc2nc3c(c(=O)n2C)SC(C)C3)s1 (centres undefined)	-2%	-3.1%	-2%	2
O=C(CCc1ccccc1)Nc1nnc(-c2cccs2)o1	7%	-2.5%	-8%	4
CC(C)c1ccccc1NC(=O)COC(=O)CNC(=O)c1ccc(Br)cc1	-4%	-0.6%	4%	0
COc1cccc(/C=N/NC(=O)c2cccc([N+](=O)[O-])c2)c1OS(=O)(=O)c1ccccc1	-2%	2.2%	-4%	1
COc1ccc(/C=C/C(=O)NCCCN2CCCCCC2)cc1	4%	-0.2%	-5%	.
COc1ccccc1C(=O)N/C(=C\c1cn(S(=O)(=O)N(C)C)c2ccccc12)C(=O)NCCN1CCOCC1	16%	2.5%	1%	.

Compound profiles, from the list above. Order of screens: Rango release inh | Rango-impB inh | miR-21 reporter | GLA inh pH 4.5
N#Cc1c(N2CCOCC2)nc(N2CCCCC2)c2c1CCN(C1CCCCC1)C2 is listed as 23µM* | ? | 0% | 4
O=c1[nH]c(=S)n(-c2cccc(C(F)(F)F)c2)c(O)c1C=NCCN1CCNCC1 is listed as -13% | -0.9% | 1% | .
CC(C)(C)NC(=O)C(c1ccc(-c2ccccc2)cc1)N(C[C@H]1CC[C@@H]([C@@H]2CC[C@H](CO)O2)O1)C(=O)c1cccc(Cl)c1 (some centres undefined) is listed as -1% | 6.6% | . | .
COc1ccc(Cl)cc1N(CC(=O)NCC(C)C)S(=O)(=O)c1ccc(C)c([N+](=O)[O-])c1 is listed as 11% | 3.9% | -9% | 0

New compounds follow.
SMILES	Rango release inh	Rango-impB inh	miR-21 reporter	GLA inh pH 4.5
c1ccc(-n2nnnc2CN2CCOCC2)cc1	1%	-2.0%	-1%	7
CCOC(=O)C1(Cc2ccccc2)CCN(Cc2cccn2-c2cccnc2)CC1	6%	-0.6%	8%	-6
CC(C)[C@H](NC(=O)C1CCN(S(=O)(=O)c2ccccc2)CC1)C(=O)NCc1ccc(F)cc1	10%	2.0%	6%	.
CC(=O)SC1CC(=O)N(c2c(C)cccc2C)C1=O (centres undefined)	-9%	3.1%	8%	2
O=C(CC1NCCc2ccccc21)Nc1ccccc1Cl (centres undefined)	0%	-1.1%	-24%	-8
CCOc1ccc(N2C(=O)CC(N(O)c3ccccc3)C2=O)cc1 (centres undefined)	4%	-0.1%	-36%	-9
CC(=O)NCC(=O)NC1CCCc2c1cnn2-c1ccc(C(C)(C)C)cc1 (centres undefined)	22%	-6.4%	-1%	.
CCN1C(=O)C2C(c3cccc(F)c3)NC(C)(C(=O)OC)C2C1=O (centres undefined)	7%	-1.3%	-1%	8
O=C(COC(=O)c1cccc(S(=O)(=O)N2CCOCC2)c1)c1ccccc1	-4%	-4.2%	-3%	.
CCOC(=O)C1CCN(C(=O)C2CCN(c3nnc(-n4cccc4)s3)CC2)CC1	3%	-0.2%	0%	.
O=c1c2ccccc2nc(/C=C/c2ccc3c(c2)OCO3)n1CCCO	2%	?	-20%	5
CCNC(=O)N(CC)C[C@H]1N[C@@](Cc2ccccc2)(C(=O)OC)[C@H]2C(=O)N(C)C(=O)[C@@H]12	-2%	1.6%	.	.
Cn1c(/C=N/NC(=O)c2ccccc2Br)nc2ccccc21	-19%	4.6%	-7%	7
N=C1C(c2ccccc2)=C(O)CN1c1cccc(S(=O)(=O)N2CCCCC2)c1	12%	-0.7%	-4%	-3
O=C1C2C3C=CC(C4CC34)C2C(=O)N1/N=C/c1ccc([N+](=O)[O-])o1 (centres undefined)	-2%	0.2%	16%	-3
CCOC(=O)C1CCN(CCC(=O)Nc2ccc(F)cc2)CC1	-2%	-2.6%	-2%	-7
CCOC(=O)c1ccc(N(C(=O)CNC(=O)c2ccco2)C(C(=O)NCC2CCCO2)c2ccc(OC)c(OC)c2)cc1 (centres undefined)	0%	2.1%	0%	.
CCOC(=O)c1c(-c2ccccc2)csc1NC(=O)C(C)NCc1ccco1 (centres undefined)	-13%	-0.8%	-5%	-19
CC(=O)N1CCN=C1SCc1ccc(C)cc1	-10%	-1.7%	-9%	7
O=C(COc1cccc2cccnc12)Nc1nccs1	-16%	-2.6%	-41%	1
Cc1ccc(NC(=O)CCc2nnc(SCC(=O)Nc3ccccc3C)n2C)cc1Cl	-4%	-0.1%	-3%	0
O=C(O)CNS(=O)(=O)c1c(Cl)cccc1Cl	1%	0.6%	1%	-2
CC(=O)c1cc(F)c(N2CCN(C(=O)COc3ccc(F)cc3)CC2)cc1C	15%	-5.6%	2%	1
C=CCn1c(OCc2ccccc2)n[nH]c1=S	1%	0.6%	-1%	.
Cc1ccc2c(c1)N(C(=O)CCC(=O)N1CCOCC1)CCO2	4%	-0.9%	-1%	.
COc1cccc(-c2cc(C(=O)NN3CCOCC3)c3ccccc3n2)c1	-5%	-0.6%	0%	0
O=C(COC(=O)Cc1ccc(Br)cc1)NCC1CCCCC1	2%	2.2%	0%	1
COc1ccc2nc(C3CCCCC3)nc(C3CCCCC3)c2c1	1%	-0.1%	.	.
Cn1c(=O)[nH]c(=O)c2c1nc(N1CCCCC1)n2CC(O)CN1CCCCC1 (centres undefined)	-3%	-3.3%	1%	-1
CCC1(CC)NC(=O)N(CC(=O)OCC(=O)Nc2ncc(Cl)cc2Cl)C1=O	6%	?	.	.

Screens deposited in PubChem BioAssay by National Center for Advancing Translational Sciences (NCATS).

This is a subset; count on the stated rates, not on these rows.
